HPGD block: HPGD (human) dehydrogenase inhibition | P15428 | purified HPGD, NADH fluorescence kinetic, PGE2 substrate | hit rate 4.3% among 150,000 | Potency, µM, for inactives: at the highest dose activity change, negative = inhibition, most hits filed as inhibitors; active = well fitted inhibition curve with a large enough effect (not every such curve was filed as active); inconclusive = small, poorly fitted or top-dose-only effect, or another doubt; inactive = no such curve, though single readings can be large or run the other way;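 further: top concentration of the series not given in the record; plate controls included wells without enzyme; inactives centre near -10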
Target sequence (P15428 whole entry, looked up): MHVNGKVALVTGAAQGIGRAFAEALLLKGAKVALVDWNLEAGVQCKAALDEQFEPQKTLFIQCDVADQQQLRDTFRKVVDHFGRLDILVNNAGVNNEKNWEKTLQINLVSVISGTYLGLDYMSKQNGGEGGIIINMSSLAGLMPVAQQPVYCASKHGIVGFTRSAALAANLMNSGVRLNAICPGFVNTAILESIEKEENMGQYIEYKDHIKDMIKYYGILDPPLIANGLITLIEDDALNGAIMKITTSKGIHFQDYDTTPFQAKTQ
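20 nM HPGD preincubated 15 min at room temperature with compound in 50 mM Tris-HCl pH 8, 0.01% Tween 20. Started with 1 mM NAD+ and 30 uM prostaglandin E2; NADH fluorescence (360/450 nm) read 5 times over 30-s intervals, last minus first.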
* marks the source's active call; other numbers are inactive results; ? = inconclusive; & = joins results of further samples; ! = not active in a repeat. On the % scale 0 is the no-effect control and ±100 the full control effect; potency means the concentration at half of the fitted maximal effect. These rows are one share of the data (hit frequency here may not be typical).

structure,HPGD block
O=C(Nc1nc(-c2ccccc2)c(-c2ccccc2)s1)c1ccc(S(=O)(=O)N(CCCl)CCCl)cc1,-29%
O=S(=O)(c1ccc(Cl)cc1)N1CC1c1ccccc1 (centres undefined),4%
CCC(=O)c1cn(Cc2ccccc2C#N)c2ccccc12,-8%
Nc1cc(Cl)ccc1O,10µM*
CN(C)CP(=O)(O)CN(C)C=O,0%
CN1CCC(N(C)c2nc(-c3ccc([N+](=O)[O-])cc3)nc3ccccc23)CC1,-7%
CCOC(OCC)P(=O)(O)CCCN,-16%
Clc1ccc(C(c2ccccc2Cl)C(Cl)(Cl)Cl)cc1 (centres undefined),-6%
C=C(Cl)Cl,-5%
CC(C)C12CN3CCN(CC(C3)/C1=N\O)C2,-2%

Next structures.
structure,HPGD block
CC1(C)C(=O)C=C[C@@]2(C)C1=C(O)C(=O)[C@@]1(C)C2CC[C@@]2(C)C(c3ccoc3)C[C@H]3O[C@@]321 (some centres undefined),1%
Nc1c(Cl)cc([N+](=O)[O-])cc1Cl,-13%
CCOC(=O)c1[nH]c(C)c(C(=O)N2CCC3(CC2)OCCO3)c1C,-5%
COC(=O)[C@@H]1C[C@H](OC(C)=O)C(=O)[C@H]2[C@@]1(C)CC[C@H]1C(=O)O[C@H](c3ccoc3)C[C@]21C,-6%
S=C(c1ccc(Cl)cc1)N1CCOCC1,22µM*
Oc1ccc(/C=N/NP(=S)(c2ccccc2)c2ccccc2)cc1,32µM*
C#CCOCOCC#CCN(CC)CC,-8%
Cc1ccc(NC(=[OH+])c2cc3ccccc3cc2O)c(C)c1.Cc1ccc(NC(=[OH+])c2cc3ccccc3cc2O)c(C)c1.[Ni],1.8µM*
CC(C)c1cccc(O)c(=O)c1,?
Cc1cccc(NP(=O)(Oc2ccccc2F)Oc2ccccc2F)c1,-15%

The results go on:
structure,HPGD block
Clc1ccc2c(c1)C(OC1CN3CCC1CC3)c1ccccc1CS2 (centres undefined),4%
COC(=O)C(O)(c1ccc(N=Cc2ccccc2O)c(C)c1)C(F)(F)F (centres undefined),-2%
CCOC(=O)N(c1ccccc1)P1(=S)OCC(C)O1 (centres undefined),-17%
CC[C@]12CCCN3CCC4(c5ccccc5NC4C(C(=O)O)C1)C32 (some centres undefined),-7%
Cn1c(O)c(C=NCCOc2ccc(Cl)cc2)c(=O)n(C)c1=O,-9%
CCOc1cc(/C=C2/C(=O)NC(=O)N(c3ccc(CC)cc3)C2=O)ccc1OC(=O)c1cccs1,?
O=C1NC(=O)C(=CN2CCc3ccccc32)C(=O)N1,-20%
O=C(Nc1ccc(Br)cc1)c1cc(Br)cc(Br)c1O,-12%
Brc1ccc2[nH]cc(/C=N/N3CCCCC3)c2c1,-10%
COc1cc(=O)[nH]c(SCc2c(F)c(F)c(F)c(F)c2F)n1,16µM*

Next part
structure,HPGD block
CCOC(=O)Cc1c(C)c2c(C)[nH]nc2oc1=O,?
ClC(Cl)(Cl)C(Cl)(Cl)Cl,-9%
Cc1cccc(NC(=O)c2cccc(NS(=O)(=O)c3ccc(Cl)cc3)c2)c1,13µM*
CCN(CC)N=O,0%
Cc1cccc(-n2c(-c3ccco3)nc3ccccc3c2=O)n1,-4%
Cc1ccccc1N1C(=O)NC(=O)/C(=C\c2cc(Br)c(N3CCOCC3)o2)C1=O,-26%
CCCCOCCCn1c(N)c(C(=O)OC(C)COC)c2nc3ccccc3nc21 (centres undefined),?
O[C@@H](Cc1ccncc1)C(Cl)(Cl)Cl,1%
CCCOc1ccccc1C1SCC(=O)Nc2c1c(=O)[nH]n2C(C)CCC (centres undefined),-19%
Cc1ccccc1N1C(=O)NC(=O)/C(=C\c2cnn(-c3ccccc3)c2)C1=O,10µM*

The results go on.
structure,HPGD block
C=C[C@@H]1C[C@@]1(C)[C@@H](NP(=O)(c1ccccc1)c1ccccc1)c1ccccc1,-5%&-4%
CCCN(CCC)[C@@H]1CCc2cccc(O)c2C1,-6%&-3%&-8%
CCCCCCCCCCCCCCCCOC[C@@H](O)COP(=O)([O-])OCC[N+](C)(C)C,-9%
C=C[C@H]1CN2CC[C@H]1C[C@H]2c1[nH]c2ccccc2c1CCO,-3%
O=P(NS(=O)(=O)c1ccc(Cl)cc1)(Oc1ccccc1)Oc1ccccc1,-14%
COc1ccccc1CCNC1CCC(C)CC1 (centres undefined),-3%
CC1(C)N(O)C2CCCCC2N1O (centres undefined),-5%
c1ccc(CCNCc2ccccc2)cc1,-14%
CCN(CC)CCOC(=O)c1ccc(N=Cc2c(O)[nH]c(=O)[nH]c2=O)cc1,-10%
[O-][n+]1onc2c1CCC1N(O)CCC21O (centres undefined),1%

The closing two entries of the part above open the next one.
structure,HPGD block
CCN(CC)CCOC(=O)c1ccc(N=Cc2c(O)[nH]c(=O)[nH]c2=O)cc1,-10%
[O-][n+]1onc2c1CCC1N(O)CCC21O (centres undefined),1%
C[C@@]12CC(=O)[C@H]3[C@@H](CCC4=CC(=O)CC[C@]43C)[C@H]1CCC2=O,-2%
c1cc(CN2CC3(CCNCC3)C2)ccn1,-8%
Oc1ccc2c3c1O[C@H]1c4[nH]c5c(c4C[C@@]4(O)[C@@H](C2)N(CC2CC2)CC[C@]314)C[C@@]1(O)[C@H]2Cc3ccc(O)c4c3[C@@]1(CCN2CC1CC1)[C@H]5O4,-9%
S=C=Nc1cccc2ccccc12,?
Cc1ccc(C(c2nnnn2Cc2ccccc2)N2CC=C(c3ccc(F)cc3)CC2)cc1 (centres undefined),-15%
C=CCn1c(O)c(C(C)=NCCCO)c(=O)[nH]c1=O,-7%
COc1cc(C[C@@H](C)N)c(OC)cc1I,-6%
CC(C)CN1CCC2(CC1)CCN(S(C)(=O)=O)CC2,-9%
O=C(CNC(=O)OCc1ccccc1)Nc1ccc(Br)cc1C(=O)c1ccccc1Cl,-9%
C[C@H](N)Cc1c[nH]c2ccc(O)cc12,-3%

(next part)
structure,HPGD block
C/C(=N/OC(=O)N(C)C)c1ncc(C(F)(F)F)cc1N1CCOCC1,?
N=C(N)n1cc(/C=N\N=C(N)N)cn1,-13%
NP(=O)(OCC(F)(F)F)Oc1ccc(Cl)cc1 (centres undefined),-13%
O=C1NC(=O)N(c2ccc3c(c2)OCO3)C(=O)/C1=C/c1ccc(N2CCCC2)o1,-11%
O=c1c(C=NCc2cccs2)c(O)n(C2CCCCC2)c(=O)n1C1CCCCC1,-7%
CCN1CCN(c2ncnc3ccc(Br)cc23)CC1,-22%
C=CP(=O)(O)c1ccccc1,-5%
Fc1ccc(C(OCCN2CCCC2)c2ccc(F)cc2)cc1,0%
O=C(CNC(=O)c1ccccc1)Nc1ccc(Br)cc1C(=O)c1ccccc1,-14%
O=C(CCl)c1ccc(Cl)cc1Cl,-9%

(list continues)
structure,HPGD block
CC(=O)OC1N=C(c2ccccc2)c2cc(Br)ccc2N(C)C1=O (centres undefined),-16%
O=c1c(/C=N/N2CCOCC2)c(O)n(-c2ccccc2)c(=S)n1-c1ccccc1,-21%
CN1C(=O)CCS(=O)(=O)C1c1ccc(Cl)cc1 (centres undefined),6%&-15%
CC(=NCCO)c1c(O)n(C2CCCCC2)c(=O)[nH]c1=O,-6%
CN1CCN(c2ccc(S(=O)(=O)C(F)(F)F)cc2[N+](=O)[O-])CC1,-10%
C=CCn1c(O)c(C(C)=Nc2ccc(NC(C)=O)cc2)c(=O)[nH]c1=O,-20%
ClCC1CO1 (centres undefined),-3%
COc1cc2c(cc1OC)-c1c(OC)c(OC)cc3c1C(C2)N(C)CC3 (centres undefined),-22%
O=C(Cc1ccccc1)OCCN1CCCCC1,-1%
CC1(c2ccccc2)NCCN2C(=O)CSC21 (centres undefined),-1%

(continued)
structure,HPGD block
O=C(Nc1ccc(Cl)cc1)O/N=C(\c1ccccc1)c1ccccn1,6%
CC(C)NC(C)C(=O)C12CC3CC(CC(C3)C1)C2 (centres undefined),-3%
CN1CCc2cc3c(cc2[C@@H]1O)OCO3,?
FC(F)(F)c1ccccc1CN1CCN(Cc2ccccc2)CC1,-13%
CC1CCCCN1C(=O)c1ccc(N2CC3CC(C2)c2cccc(=O)n2C3)c([N+](=O)[O-])c1 (centres undefined),-7%
Cc1cccc(N2C(=O)NC(=O)/C(=C\c3cccn3-c3ccc(Cl)cc3)C2=O)c1,?
Cc1cc([N+](=O)[O-])c(Cl)cc1NC(=O)C(C)C,-2%
Cc1cccc(NC(=O)N[C@@H]2N=C(c3ccccc3)c3ccccc3N(CC(=O)c3ccccc3C)C2=O)c1,-12%
O=P(C(=Nc1ccc(Cl)cc1)N1CCOCC1)(N1CCOCC1)N1CCOCC1,-10%
Nc1c(C(=O)Nc2ccc([As](=O)(O)O)cc2)cnc2nnnn12,0%

(further entries)
structure,HPGD block
O=c1[nH]c(CN2CC=C(c3ccccc3)CC2)nc2cc(C(F)(F)F)ccc12,-9%
C[C@]12CC[C@H]3[C@@H](CCC4C[C@H](O)CC[C@@]43C)[C@@H]1CC[C@@H]2O (some centres undefined),-10%
Cn1c(O)c(C(=O)c2ccccc2Cl)c(=O)n(C)c1=O,-16%
O=c1[nH]c(=O)n(Cc2ccc(F)cc2)c(O)c1C=NCc1cccnc1,16µM*
OC(O)C(Cl)(Cl)Cl,-2%
COC1=C[C@H]2[C@H]3Cc4ccc(OC)c(O)c4[C@@]2(CCN3C)CC1=O,-16%
O=C(c1ccco1)C12CN3CN(CN(C3)C1)C2,-1%
O=C(Nc1cccc(F)c1)N1CCC2(CC1)CCN(C(=O)Oc1ccccc1)CC2,-12%
C[C@@H]1C[C@@H]([C@H](O)CC2CC(=O)NC(=O)C2)C(=O)[C@@H](C)C1,2%&-5%&0%
C[C@]12CCC(=O)C(O)=C1CC[C@@H]1[C@@H]2CC[C@]2(C)C(=O)CC[C@@H]12,-13%

The results go on:
structure,HPGD block
CN1CCN(C(=O)COc2ccc(S(=O)(=O)NCc3ccccc3)cc2Cl)CC1,-15%
O=C(CN1C(=O)CN=C(c2ccccc2)c2ccccc21)NCc1ccco1,-24%
CN1C(=O)C(C2c3ccccc3C(=O)N2Cc2ccccc2)C(=O)N(C)C1=O (centres undefined),-6%
Cc1ccc2c(c1)CC1(CN2C)C(=O)NC(=O)N(c2ccc(C)c(C)c2)C1=O (centres undefined),-16%
CN=C(SCc1cc2c(cc1Cl)OCO2)c1c(O)n(C)c(=O)n(C)c1=O,-18%
CCNC(=O)[C@@H]1O[C@@H](n2cnc3c(N)ncnc32)[C@H](O)[C@H]1O,-21%
Nc1cc(N2CCNCC2)ccc1[N+](=O)[O-],-17%
OCC1CCCN2CCCCC12 (centres undefined),-2%&-12%
COc1cccc(-n2nc(C(=O)N3CCC4(CC3)OCCO4)c3ccccc3c2=O)c1,-11%
CCCCN1C(=O)/C(=C/c2ccc(N3CCCCCC3)cc2)C(=O)NC1=S,-15%

(next part)
structure,HPGD block
CCCCn1c(O)c(C(C)=NCCCN(CC)CC)c(=O)[nH]c1=O,-2%
Cc1ccc(-c2cc(C(F)F)n3ncc(C(=O)N4CCC5(CC4)OCCO5)c3n2)cc1,-24%
CCC12C=CCN3CCC4(c5cc(Br)c(OC)cc5N(C)C4C(O)(C(=O)OC)C1OC(C)=O)C32 (centres undefined),10%
c1ccc(SSc2ccccc2)cc1,?
O=C(Nc1cccc2ccccc12)c1nn(C23CC4CC(CC(C4)C2)C3)cc1Br,?
O=C(O)c1ccccc1Nc1cccc(C(F)(F)F)c1,28µM*!
Cc1ccccc1N1C(=O)NC(=O)/C(=C\c2ccc3c(c2)CCCN3Cc2ccccc2)C1=O,1.8µM*
Nc1ccc(Oc2ccc(N)cc2)cc1,-14%
CCn1c(O)c(C=Nc2cc(Cl)ccc2Cl)c(=O)n(CC)c1=O,?
CN1CCN(c2ccc(NC(=O)C(C)(C)C)cc2)CC1,-6%

Carrying on.
structure,HPGD block
COP(=O)(OC)C(NC(=O)C(C)(C)C)=C(Cl)Cl,1%
COc1cc2c(cc1OC)[C@@H]1C(=O)c3ccc(OC)c(CC=C(C)C)c3OC1CO2 (some centres undefined),-28%
CC1(C)Cc2c(sc3c2C(=O)NC(c2cccnc2)N3)CO1 (centres undefined),?
COP(=S)(OC)SCN1C(=O)c2ccccc2C1=O,20µM*
COc1ccc(OCC(=O)N2CCN(CC3CC4C=CC3C4)CC2)cc1 (centres undefined),-3%
O=c1[nH]c(=O)n(C2CCCCCC2)c(O)c1C=NC1CCN(Cc2ccccc2)CC1,-4%
COc1ccc2nc(NC(=O)CCc3nc(C4=CCN(C)CC4)no3)sc2c1,-3%
C[C@H](N)Cc1c[nH]c2ccc(OCc3cccs3)cc12,-13%
CC(=NCC1CCCO1)c1c(O)n(-c2ccc(C)cc2)c(=O)[nH]c1=O (centres undefined),-1%
CCC(=Nc1cc(OC)ccc1OC)c1c(O)[nH]c(=O)[nH]c1=O,25µM*

(cont.)
structure,HPGD block
CCCCOc1ccc(CCN)cc1Cl,-8%
C=CCn1c(O)c(C(C)=NCc2cccnc2)c(=O)[nH]c1=O,-11%
CC(N)Cc1c[nH]c2ccc(OCc3cccs3)cc12 (centres undefined),3%
C=CCN1CC[C@@]23c4c5ccc(O)c4O[C@H]2/C(=N\N=C2/CC[C@@]4(O)[C@H]6Cc7ccc(O)c8c7[C@@]4(CCN6CC=C)[C@@H]2O8)CC[C@]3(O)[C@@H]1C5,7%

Screening data: PubChem, National Center for Advancing Translational Sciences (NCATS)
